gsp antag – qHTS for Antagonists of gsp, the Etiologic Mutation Responsible for Fibrous Dysplasia/McCune-Albright Syndrome: qHTS; gsp-mutant cells, cAMP HTRF, 30 min; control for the full effect not named in the record; Potency, µM (doses to about 76.9 µM), inactives show top-dose activity change, negative = inhibition, hits mostly inhibitors; 0.4% of 340,000 active; AID 624288, 2012; active = falling curve of any shape with a large fitted effect; inconclusive = falling curve, mostly with a smaller effect; inactive = flat or rising curve; cell line not stated here;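 also: intracellular cAMP measured with PDE inhibitor Ro 20-1724 present during compound exposure; potency is read from the fitted curve at half-maximal effect; % is scaled to controls: 0 for no effect and ±100 for the full control effect; nearly all actives have a fitted effect of over 65% in size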
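Cells in G418 medium, seeded 16-24 h, 37C; buffer exchange to DPBS + 1 mM CaCl2, 0.5 mM MgCl2, 0.05% BSA; cpds in DMSO + […] (300 uM stock), 30 min 37C; HTRF cAMP detection.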
gsp ag – qHTS for Agonist of gsp, the Etiologic Mutation Responsible for Fibrous Dysplasia/McCune-Albright Syndrome: qHTS. gsp mutant cells, cAMP HTRF, 30 min; control for the full effect not named in the record. Potency, µM (titrated, usually from 76.9 µM), for the others: at the highest dose activation (cAMP increase), usual class: activators. 0.13% of 340,000 active; active = well fitted activation curve with a large enough effect; inconclusive = small, poorly fitted or top-dose-only effect, or another doubt; inactive = no such curve, though single readings can be large or run the other way; cell line not stated here;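 also: phosphodiesterase inhibitor Ro 20-1724 added with compounds to block cAMP breakdown; potency is read from the fitted curve at half-maximal effect; nearly all actives have a fitted effect of over 60% in size; about a fifth of the inactives were tested at one dose only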
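Cells in DMEM/10% FBS with G418 were pretreated with compounds in DMSO plus […] (300 uM stock) for 30 min at 37C. cAMP was measured by HTRF (cAMP-d2 plus anti-cAMP antibody-K) after 30 min at room temperature.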
TRPML1 inh – qHTS for Inhibitors of the Human Mucolipin Transient Receptor Potential 1 (TRPML1) | activity change, negative = inhibition, % (no concentration beside the values) | 0.02% of 390,000 active | AID 624415, 2012 | TRPML1-inducible cells, Ca2+ dye fluorescence, FDSS; active compounds read low; inhibition of EC80 agonist-evoked calcium signal; in the data active means activity change below about -50%; inconclusive means about -30% to -50%; inactive means above about -30%;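 also: stimulus is agonist 54-4 at its EC80 concentration; % is scaled to controls: 0 for no effect and ±100 for the full control effect; compound concentration not given in the record; the text of the record puts the active cut at -80%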
Target sequence (Q9GZU1 whole entry, looked up): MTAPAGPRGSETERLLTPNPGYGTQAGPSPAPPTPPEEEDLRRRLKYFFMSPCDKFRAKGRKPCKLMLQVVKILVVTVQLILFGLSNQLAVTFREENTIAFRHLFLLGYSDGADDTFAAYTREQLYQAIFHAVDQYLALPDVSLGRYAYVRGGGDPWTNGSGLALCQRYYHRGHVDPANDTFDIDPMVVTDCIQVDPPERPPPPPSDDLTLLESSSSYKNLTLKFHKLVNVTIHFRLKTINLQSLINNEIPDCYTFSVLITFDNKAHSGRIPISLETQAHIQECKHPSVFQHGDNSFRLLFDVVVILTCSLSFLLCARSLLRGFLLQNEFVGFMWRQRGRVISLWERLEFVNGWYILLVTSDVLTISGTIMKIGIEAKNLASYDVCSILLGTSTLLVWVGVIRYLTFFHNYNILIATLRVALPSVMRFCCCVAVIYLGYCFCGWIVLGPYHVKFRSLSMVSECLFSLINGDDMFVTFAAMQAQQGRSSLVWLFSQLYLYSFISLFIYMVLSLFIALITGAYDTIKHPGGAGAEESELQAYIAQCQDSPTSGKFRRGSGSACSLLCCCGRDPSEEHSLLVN
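Calcium fluorescence in TRPML1-DL cells induced overnight with Tet: a 110 s read after compound pin addition, then a 110 s antagonist read after challenge with 54-4 at 4 uM final (EC80).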
TRPML1 agonist – qHTS for Agonists of the Human Mucolipin Transient Receptor Potential 1 (TRPML1). Mucolipin-1 (Homo sapiens), Q9GZU1. TRPML1-expressing cells, Ca2+ dye fluorescence, FDSS; host cell line not named in the record; reference of the full effect not given here. activation, % (no concentration beside the values). 0.12% of 410,000 active; in the data active = activation above about 50%; inconclusive = about 30% to 50%; inactive = below about 30%; also: 0% is about no effect; the text of the record puts the active cut at 80%
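Cells: TRPML1-DL, 1X Tet inducer, ~16 h at 37 degrees C/5% CO2. Dye: ABD Ca8 no-wash + quencher, 45-90 min RT. Read: 10 s baseline, compound add, 110 s agonist phase; 54-4 EC80 (4uM final), 110 s antagonist phase.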
ClpP mod – qHTS Assay for Activators of ClpP | ATP-dependent Clp protease proteolytic subunit (Bacillus subtilis (strain 168)), P80244 | purified B. subtilis ClpP, FRET peptide cleavage, 20 min | Potency, µM (titrated, usually from 57.5 µM), for the others: at the highest dose activity change, negative = active | 1.9% of 340,000 active; active = well fitted falling curve with a large enough effect; inconclusive = small, poorly fitted or top-dose-only effect; inactive = no such curve, though single readings can be large or run the other way; also: potency is read from the fitted curve at half-maximal effect; the source files actives as falling curves though it sought activators and does not explain the sign; nearly all actives have a fitted effect of over 65% in size; many hits overshoot -100%
Target sequence (P80244 whole entry, looked up): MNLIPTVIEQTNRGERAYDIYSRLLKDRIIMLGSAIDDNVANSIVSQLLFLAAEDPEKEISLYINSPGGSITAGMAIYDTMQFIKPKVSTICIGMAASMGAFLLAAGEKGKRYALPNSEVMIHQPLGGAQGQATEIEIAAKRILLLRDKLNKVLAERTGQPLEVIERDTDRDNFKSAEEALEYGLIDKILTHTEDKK
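Buffer: 100 mM Tris/HCl pH8, 100 mM KCl, 0.05% low protease BSA, 2.5% glycerol, 0.01% Tween-20. ClpP 10 microg/mL final; 20 min RT; delta FRET normalized to ADEP and DMSO controls.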
Menin MLL FP FL – qHTS Assay for Inhibitors Targeting the Menin-MLL Interaction in MLL Related Leukemias: Competition With Fluorescein Labeled MLL-derived Peptide. Fluorescence polarization, fluorescein-MLL peptide displacement from menin. 290,000 tested, under 10 active. FP activity change, % at 61.4 µM; inconclusive = falling polarisation curve, or a change in total fluorescence; inactive = total fluorescence flat and polarisation flat or rising; no compound was filed as active; the % refers to the polarisation; negative = inhibition;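 also: % of control where 0% means no effect; inhibitors lower the polarisation; unlabelled MLL peptide was the positive control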
Starred values were filed as active, the others as inactive; ? = inconclusive; · = no result given; & = joins results of further samples; [ ] = dose if it differs, or a comment.

Molecule,gsp antag,gsp ag,TRPML1 inh,TRPML1 agonist,ClpP mod,Menin MLL FP FL
CC1CCc2nc(NC(=O)c3cc(C(C)(C)C)nn3C)sc2C1 (configuration not stated),9.4%,25.0%,-11.7,-0.1,?,4.1
CCCS(=O)(=O)N1CCCC(C(=O)NCCN2CCCCC2C)C1 (configuration not stated),6.2%,11.6%,25.7,0.2,-1.2%,-14.1
Clc1ccc(-n2nnnc2-c2cnc3ccccc3c2-c2ccccc2)cc1,-11.4%,-16.9%[15.4 µM],2.2,3.1,-0.2%,6.3
Cn1c(=O)n(C)c2cc(CN3C(=O)OC(C)(C)C3(C)O)ccc21 (configuration not stated),6.7%,-3.2%,6.7,-0.6,-0.5%,-1.1
O=C1c2ccccc2C(=O)c2c1cccc2-n1nnc2ccccc21,8.6%,27.8%[15.4 µM],13.8,1.8,·,-1.4
COC(=O)C1=C(C(=O)OC)[C@@H]2N(C)c3ccccc3[C@@]23C[C@@H](C(=O)OC)N(C(=O)c2ccco2)C3=N1,7.7%,·,-11.6,-0.6,0.7%,-0.8[11.7 µM]
CCOc1ccc(C(CC(=O)O)N2Cc3ccccc3C2=O)cc1OC (configuration not stated),·,·,18.7,-0.7,-1.1%,·
COc1ccc(-c2nc3ccccc3c(=O)n2CCN2CCOCC2)cc1,8.9%,-14.5%,-6.9,0.2,-0.5%,1.7
O=C1c2ccccc2[C@@H]2C[C@@H](O)[C@H](Nc3cccc(Cl)n3)CCN12,-3.5%,·,37.7,0.1,0.4%,·
COc1ccc(O)c(C(=O)c2cc(SCC(=O)O)c3nc4sc5c(c4c(=O)n3c2)CCCC5)c1,-22.0%,-27.4%[15.4 µM],32.2,0.6,·,2.3
Cn1cc(CNCc2cn(C)nc2-c2ccc(C3CCCCC3)cc2)cn1,-1.8%,-9.8%[15.4 µM],-17.3,0.1,·,3.8
Cn1c(=O)n(C)c2cc(C(=O)c3ccccc3)ccc21,0.7%,-3.3%,14.0,0.7,-0.4%,-0.4
COc1ccccc1OCC(=O)N(Cc1nc(-c2ccc(Cl)cc2)no1)C(C)C,?,22.4%,-3.8,-0.9,0.3%,-0.2
O=[N+]([O-])c1ccc(S(=O)(=O)NCCS(=O)(=O)N2CCN(c3ccccc3)CC2)cc1,?,-24.9%,-7.1,-0.1,-0.6%,-3.9
CCCCN1C(=O)c2[nH]nc(-c3ccccc3O)c2C1c1ccc(OCc2ccccc2)cc1 (configuration not stated),·,·,68.4,3.5,-2.0%,·
NC(=O)OCC(O)COc1ccc(Cl)cc1 (configuration not stated),7.6%,·,-14.7,-0.3,0.0%,·
COc1ccc(Cl)cc1NC(=O)CN1CCc2ccccc21,-29.2%,-7.1%[15.4 µM],1.5,1.3,·,0.2
O=C(O)c1ccccc1C(=O)Nc1ccc(-n2nccc2C(F)(F)F)cc1,1.2%,6.4%,-14.8,-0.6,-9.5%,3.0
Cc1ccc(-c2ccc(/C=C3/NC(=O)NC3=O)o2)cc1[N+](=O)[O-],-23.7%,-49.9%[inhibitor],-1.7,1.2,-2.2%,·
Nc1c(Br)cc(Br)cc1CNC1CCC(O)CC1 (configuration not stated),-12.3%&6.3%,·,2.4&-2.5,-0.9&-0.7,1.7%&0.3%,-2.1
Cc1noc(C)c1CSc1nc2ccccc2s1,5.6%[15.4 µM],-18.2%,?,0.5,3.2%,2.7
CC(C)n1c(=S)[nH]c2cc(Cl)ccc21,-2.0%,0.5%,6.1,-0.3,-3.3%,3.2
O=C1N(c2ccc(Cl)c(Cl)c2)CN(Cc2ccccc2)CN1n1cnnc1,-6.9%,-4.4%,-10.9,-0.2,-1.3%,3.1
CCCc1nc2c(C)cc(Br)cn2c1Cc1ccc(OC)cc1C,·,·,-10.4,1.1,-4.1%,·
C[C@@H]1CN([C@H](C)CO)C(=O)CCCn2cc(nn2)CO[C@H]1CN(C)S(=O)(=O)c1cccc(C#N)c1,·,-1.8%,-7.6,-0.4,2.2%,·
C=CCn1c(NCCO)nc2sc3c(c2c1=O)CCC3,-3.8%,-62.2%[inhibitor],-12.3,-0.6,5.5%,2.0
CC1(C)Cc2c(sc3nc4n(c(=N)c23)CCCCC4)CO1,16.9%,-19.6%,-14.4,0.3,2.9%,-0.9
COc1ccc(S(=O)(=O)Nc2ccc3c(c2)OCO3)cc1C,-8.4%,-23.5%,-10.5,0.9,0.6%,2.0
COc1ccccc1CC(NC(C)=O)C(=O)N1CCN(C(=O)Nc2ccccc2Cl)CC1 (configuration not stated),2.7%,-30.1%[inhibitor],-0.8,0.3,-2.0%,0.9
Cc1nc2c(c(C)nn2C(C)(C)C)c(C)c1CCC(=O)Nc1ccc(F)cc1,·,·,-3.3,1.9,-8.7%,·
CC(=O)OCCCn1c(C)[n+](C)c2cc(Cl)c(Cl)cc21,8.0%,-29.4%,-26.5,0.2,-2.0%,0.1
COc1cccc(CNC(=O)c2ccccc2SCC(=O)N2CCCC2)c1,3.5%,-5.1%[15.4 µM],-20.1,1.1,3.6%,·
Nc1cc2c(cc1O)CCCC2,-5.6%,6.9%[15.4 µM],5.7,0.2,·,?
CN(C(=O)Cn1cnc2ccccc2c1=O)C1CCS(=O)(=O)C1 (configuration not stated),7.5%,5.1%,2.1,0.0,-3.4%,·
COc1ccc(N2C(=O)CS(=O)(=O)C23C(=O)N(Cc2ccccc2)c2ccccc23)cc1 (configuration not stated),·,·,-18.0,0.5,-0.8%,·
COc1cc2sc3cc(NCCCN4CCOCC4)ccc3c(=O)c2cc1OC,-4.5%,·,3.0,0.0,3.9%,·
Cc1ccc2c(c1)nnn2C1CCN(S(=O)(=O)c2ccc(C(=O)N3C(C)CCCC3C)cc2)CC1 (configuration not stated),?,-0.9%[15.4 µM],-15.2,2.8,7.4%,-0.1
O=C(CCS(=O)(=O)c1ccccc1F)Nc1ccc(N2CCN(Cc3ccccc3)CC2)cc1,-2.6%,16.1%,17.5,0.5,0.5%,·
O=C(Cn1nnc(-c2ccccc2F)n1)Nc1ccc2c(c1)OCO2,-0.1%,-18.9%,2.4,-0.6,-0.5%,6.6
C=CCOc1ccccc1/C=N/NC(=O)Cc1ccc(C)cc1,-5.7%,-33.7%[inhibitor],·,·,-10.0%,1.2
COc1ccc(CN2C(=O)c3c(c(C)n(C)c3C)C2C(=O)NC2CCC(C)CC2)cc1 (configuration not stated),-1.1%,5.9%[15.4 µM],15.1,-0.4,-1.6%,4.0
CCCCC1C(=O)N(c2ccccc2)N(c2ccc(O)cc2)C1=O (configuration not stated),?,·,21.2,0.4,-1.8%,-2.0
CCOc1ccc(OCc2cccc(C(=O)N3CCCCCC3)c2)cc1,-8.2%,10.0%[15.4 µM],3.8,1.4,·,-0.3
COc1ccc(NC(=O)Cn2c(=O)n(-c3ccccc3)c(=O)c3ccc(C(=O)NCc4ccc5c(c4)OCO5)cc32)cc1,·,·,8.6,0.2,-9.6%,·
COC(=O)c1c(C)[nH]c(C(=O)C(C)OC(=O)C2CC2)c1C (configuration not stated),13.5%,-5.7%,9.8,-0.2,0.8%,·
Cc1ccc(Cl)cc1N1CCN(C(=O)CCC(=O)Nc2ccc3nc(N4CCC(C)CC4)cc(C)c3c2)CC1,·,·,6.9,-0.4,?,·
Cc1cc(NC(=O)CCCOc2ccc(Cl)cc2Cl)no1,7.1%,-19.4%,1.2,2.9,0.4%,1.1
COc1cccc(C(C(=O)NC2CCCCC2)N(C(=O)c2csnn2)C2CC2)c1 (configuration not stated),-8.5%,?,-6.6,-0.3,·,3.5
COc1ccc(-c2c(C(=O)O)c(-c3ccccc3)cn2C)cc1,2.0%,·,-7.1,-0.7,1.1%,·
COc1cc(C(=O)OCC(=O)Nc2cc(C)on2)cc(OC)c1OC,12.5%,7.0%,26.6,0.2,-7.1%,2.4

Next section
Molecule,gsp antag,gsp ag,TRPML1 inh,TRPML1 agonist,ClpP mod,Menin MLL FP FL
CCOC(=O)c1ccc(NC(=O)c2cc3c([nH]c2=O)CC(c2ccccc2)CC3=O)cc1 (configuration not stated),·,·,-3.3,-0.8,0.4%,·
CCCCC(=O)NC1(C(F)(F)F)NC(=O)N(C)C1=O (configuration not stated),13.4%,-28.4%,·,·,2.2%,2.4
CCOC(=O)C1C(=O)C=C(c2ccc([N+](=O)[O-])cc2)CC1c1ccccc1 (configuration not stated),-12.2%,-10.3%,51.6,4.8,-1.9%,-1.7
COc1ccc(CN2C(=O)CN=C2Nc2ccc(C)cc2C)cc1,20.6%,7.4%,1.0,0.2,1.5%,2.9
CCN(CC)C(=O)c1ccc2c(=O)n(Cc3cccc(Br)c3)c(=S)[nH]c2c1,-18.1%,3.2%,5.6,0.1,-0.5%,0.4
O=[N+]([O-])c1ccc(C2NS(=O)(=O)N=C3CCCCCN32)cc1 (configuration not stated),6.3%,-0.4%,-6.3,0.4,-0.9%,-0.8
CCOC(=O)CNC(=O)CNC(=O)Cn1ccc2ccccc2c1=O,-4.9%,-16.5%,-6.4,0.6,-2.9%,3.1
Cc1ccc2nc(SCC(=O)OCc3ccccc3)nc(=O)n2c1,-0.4%,-3.2%[15.4 µM],9.0,0.3,28.2µM*,·
CCCCCC(=O)NNC(=S)NC(=O)c1ccc([N+](=O)[O-])cc1,12.9%,9.2%,13.7,0.0,·,0.0
O=C(Cn1nc2c(cc1=O)CCCC2)NCc1ccccc1Cl,·,·,-5.5,-1.2,0.2%,·
FC(F)(F)c1cc(-c2ccco2)nc(NCCc2ccccc2)n1,-3.7%,-12.0%,18.7,3.1,31.6µM*,3.1
COc1ccc(C2C(=O)N(C3CCC(C)CC3)CC(=O)N2Cc2ccc(C)cc2)cc1OC (configuration not stated),·,·,13.1,0.6,-3.8%,·
Cc1ccc(CCNC(=O)C2CCN(S(=O)(=O)N3CCCC3)CC2)cc1,8.8%,3.7%,4.6,-0.5,0.8%,0.7

Assay outcomes deposited in PubChem by National Center for Advancing Translational Sciences (NCATS).
